hNpr1 antagonist = antagonists of human natriuretic peptide receptor Npr1; HEK293 hNpr1 GloSensor cGMP, ANP-stimulated luminescence; Potency, µM (top dose mostly 46.3 µM), inactives show at the top dose activity change, negative = inhibition, usual class: inhibitors; 76,000 tested, 1.6% active; AID 1347048; active = well fitted inhibition curve with a large enough effect; inconclusive = small, poorly fitted or top-dose-only effect; inactive = no such curve, though single readings can be large or run the other way;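 also: nearly all actives have a fitted effect of over 60% in size; nearly all hits also lower the signal before the agonist is added; a reference antagonist and vehicle were the controls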
Target sequence (P16066 whole entry, looked up): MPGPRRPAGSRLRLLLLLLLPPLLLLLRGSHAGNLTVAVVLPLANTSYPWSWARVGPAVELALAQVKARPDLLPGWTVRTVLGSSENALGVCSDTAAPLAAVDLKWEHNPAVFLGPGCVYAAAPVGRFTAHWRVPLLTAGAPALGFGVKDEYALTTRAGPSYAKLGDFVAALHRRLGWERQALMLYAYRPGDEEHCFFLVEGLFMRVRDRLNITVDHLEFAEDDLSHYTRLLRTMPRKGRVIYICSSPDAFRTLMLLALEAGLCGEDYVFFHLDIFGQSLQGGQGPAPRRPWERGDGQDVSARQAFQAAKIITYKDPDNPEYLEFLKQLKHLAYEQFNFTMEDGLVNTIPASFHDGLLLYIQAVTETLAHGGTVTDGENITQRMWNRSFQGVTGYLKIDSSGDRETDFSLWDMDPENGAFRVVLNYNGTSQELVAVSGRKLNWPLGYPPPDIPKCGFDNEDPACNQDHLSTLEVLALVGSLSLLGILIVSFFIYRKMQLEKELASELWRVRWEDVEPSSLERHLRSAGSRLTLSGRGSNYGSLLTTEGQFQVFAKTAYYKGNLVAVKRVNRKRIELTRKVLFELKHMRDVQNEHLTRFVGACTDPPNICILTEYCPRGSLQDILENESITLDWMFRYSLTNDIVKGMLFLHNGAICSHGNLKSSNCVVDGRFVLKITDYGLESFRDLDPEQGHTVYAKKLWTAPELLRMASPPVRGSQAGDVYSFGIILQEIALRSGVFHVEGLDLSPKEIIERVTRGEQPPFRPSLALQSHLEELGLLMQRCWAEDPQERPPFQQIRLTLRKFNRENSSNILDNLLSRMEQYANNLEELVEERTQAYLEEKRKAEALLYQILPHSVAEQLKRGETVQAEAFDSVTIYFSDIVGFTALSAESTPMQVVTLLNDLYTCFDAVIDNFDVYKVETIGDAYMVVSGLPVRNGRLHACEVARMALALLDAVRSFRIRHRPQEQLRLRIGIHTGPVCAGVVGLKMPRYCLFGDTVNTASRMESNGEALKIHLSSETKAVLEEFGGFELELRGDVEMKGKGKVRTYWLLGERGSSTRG
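Compound pre-incubated 30 min at room temperature on GloSensor-loaded HEK293 cells stably carrying hNpr1 and the pGS-40F cGMP biosensor. Stimulation uses hNppA at 0.1 nM final; luminescence is taken at baseline and 20 min post-agonist.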
Active calls of the source: *; ? = inconclusive; & = joins results of further samples; [ ] = dose if it differs, or a comment. % is scaled to controls: 0 for no effect and ±100 for the full control effect; potency is read from the fitted curve at half-maximal effect.

SMILES	hNpr1 antagonist
O=C(Nc1cccc(F)c1)Nc1cccc(-c2ccc(N3CCCCC3)nn2)c1	7.94µM*
OC[C@@H]1O[C@H](CNCc2cccc(Cl)c2)[C@H](N2CCN(c3ccc(F)cc3)CC2)[C@@H]1O	-5.1%
CC(C)N1C(=O)C2(CCCC2)C1C(=O)N1CCc2ccccc21 (configuration not stated)	3.7%
O=C1CCN(C(=O)COc2ccc(F)cc2)CCCC(c2nc(-c3ccccc3)no2)CCN1 (configuration not stated)	3.1%
O=C1Nc2ccccc2OCC12CCN(Cc1ccc(OC(F)(F)F)cc1)CC2	16.4%
CCc1ccc(NC(=O)c2cc3n(n2)CC(c2ccc4c(c2)OCO4)OC3)cc1 (configuration not stated)	11.2µM*
CCCNC(=O)N1CCCC(Cc2ncc(C)n2Cc2ccccc2)C1 (configuration not stated)	4.0%
CC(c1cccc(CN2CCC(CO)(CN3CCCC3)CC2)c1)N(C)C (configuration not stated)	-0.6%
Cc1n[nH]c(C)c1C(N)C(=O)N1CCCCCCC1 (configuration not stated)	6.1%
Cc1ccc2c(c1)N(C(=O)Cn1ccn3nc(-c4ccccc4)c(CO)c3c1=O)CCO2	-3.3%
COc1ccc(Cn2c(C3CCN(C(=O)c4ccc(F)cc4Cl)CC3)n[nH]c2=O)cc1	-0.6%
COc1ccc(C2Cn3nnc(-c4nc(-c5ccncc5)no4)c3CO2)cc1 (configuration not stated)	-3.1%
O=C(c1ccoc1)N1CCCC(c2nc(CCOCC3CCCC3)no2)C1 (configuration not stated)	-3.3%
CCN1CC(C(=O)NCC2(c3ccccc3F)CCCC2)CC1=O (configuration not stated)	5.5%
CCN1C(=O)CCC2(C(=O)Nc3ccc(C)c(F)c3)CCCC=C12 (configuration not stated)	3.6%
CC(C)N1C(=O)OCC12CCN(C(=O)c1ccc(Oc3ccccc3)cc1)C2 (configuration not stated)	4.3%[70.6 µM]
O=C(c1ccccc1F)N1CCCC(c2nn(-c3ccc(Cl)cc3)c(=O)[nH]2)C1 (configuration not stated)	0.0%
CC(=O)N1CCC(CC(=O)NCCc2ncc(C)n2C(C)C)CC1	0.0%
Cc1cccc(OCC(=O)NCc2nnc3ccc(-c4ccc(F)cc4)nn23)c1	-4.3%
Cc1nc2ncccn2c1C(=O)N1CCC(c2[nH]ncc2-c2ccccc2)CC1	-9.4%
CCNC(=O)N1CCOc2ccc(CCC(=O)NCC3CC3)cc2C1	3.1%
COCc1noc(-c2ccc(N(C)CC3CC(=O)N(C(C)(C)C)C3)nc2)n1 (configuration not stated)	11.2µM*
OC[C@@H]1O[C@H](CNCc2ccc(F)cc2)[C@H](N2CCOCC2)[C@@H]1O	-5.6%[70.6 µM]
O=C(NCc1ccc(Cl)cc1)c1cccn2cncc12	7.0%[70.6 µM]
CCc1noc(-c2cccn3c(CNC(=O)Cc4ccccc4C)nnc23)n1	2.2%

(list continues)
SMILES	hNpr1 antagonist
O=C(CCc1conc1-c1ccc(F)cc1)NCC1CCCO1 (configuration not stated)	3.0%
CN1CCN(C(=O)C2CCCN(S(=O)(=O)c3cn(C)cn3)CCC(=O)NCC2)CC1 (configuration not stated)	0.9%
Cc1ccc(NC(=O)Cn2ccn3nc4c(c3c2=O)CC(C)CC4)cc1Cl (configuration not stated)	1.7%
O=C(c1cccs1)N1CCC2(CC1)CC(N(C(=O)c1ccccc1)C1CC1)CCO2 (configuration not stated)	-4.6%
CCn1cc(S(=O)(=O)N2CC(N(C)Cc3cccnc3)C2)cn1	-2.1%
COc1ccc(F)c(CN2CCCC(O)(CN3CCOC(C)(C)C3)C2=O)c1 (configuration not stated)	2.5%
Cn1c(CNC(=O)C2CCN(C(=O)N3CC4CC(C3)[C@H]3CCCC(=O)N3C4)CC2)nc2ccccc21 (some centres not stated)	-0.7%
COc1ccc(-c2ccc3ncc(Nc4cccc(C(F)(F)F)c4)n3n2)cn1	-29.8%[70.6 µM]
Cc1cccc(CN2CCCC3(CCN(c4cc(C)nc(N)n4)C3)C2=O)c1 (configuration not stated)	-2.0%
CCCCNC(=O)CCCN1C(=O)COc2ccc(C(C)(C)CC)cc21	-0.9%
CCOc1ccccc1CN1CCN(c2ncccc2C#N)CC1CCO (configuration not stated)	-4.3%
COCC1CCN(Cc2cc3ccc(OC)cc3nc2-c2cccc(C)c2)C1 (configuration not stated)	2.3%
COC[C@@H]1CN(Cc2cnn(C)c2C)C[C@H]1c1ccncc1	1.9%
NC(=O)[C@H](Cc1ccc(O)cc1)NC(=O)C1=C[C@@H](NC(=O)CC2(CC(=O)O)CCCC2)[C@@H](O)[C@H](O)C1	-1.5%
Clc1ccccc1C1(c2ccnc(CC3CC3)n2)CCNCC1	-1.8%
O=C1NCN(Cc2ccc(Cl)cc2)C12CCN([S+](=O)([O-])c1ccccc1)CC2	-2.7%
CCCn1cc(C(=O)N2CC(=O)N(c3cccc(C)c3)CC2C)c(C)n1 (configuration not stated)	5.3%
CCNC(=O)c1cccnc1OC1CCN(C(=O)c2cc(F)ccc2F)C1 (configuration not stated)	-1.4%
O=C(c1cnc2c(c1)N([S+](=O)([O-])c1cccnc1)CCC2)N1CCC(c2ccccc2)CC1	-0.1%
CCNC(=O)[C@@H]1C[C@H](N)CN1C(=O)c1ccc(NC(C)=O)cc1C	4.2%
CC(C)[C@@H]1CN(C(=O)c2ccc(=O)n(C)n2)C[C@H]1NS(=O)(=O)N(C)C	1.6%
O=C(Cc1ccccc1)NCC1CN(C(=O)C2CCOCC2)CC12CN(c1ccccc1)C2 (configuration not stated)	-1.4%
COc1ccc(CNC(=O)N[C@H](Cc2ccccc2)C(=O)N2CCOCCNC(=O)CC2)cc1	0.0%
CN1CCC(N2CC3(C2)C(=O)N(C)C(=O)[C@@H]2C[C@@H](O)CN23)CC1	3.0%[70.6 µM]
O=C(Cc1ccccn1)N1CCC2(C1)C(=O)N(CCc1ccccc1)c1ccccc12 (configuration not stated)	19.1%&0.6%

Part of the list above, as comma-separated lines:
smiles,hNpr1 antagonist
CCn1cc(S(=O)(=O)N2CC(N(C)Cc3cccnc3)C2)cn1,-2.1%
COc1ccc(-c2ccc3ncc(Nc4cccc(C(F)(F)F)c4)n3n2)cn1,-29.8%[70.6 µM]

Quoted at random: 6 entries already listed.
SMILES	hNpr1 antagonist
O=C(c1ccccc1F)N1CCCC(c2nn(-c3ccc(Cl)cc3)c(=O)[nH]2)C1 (configuration not stated)	0.0%
CN1CCC(N2CC3(C2)C(=O)N(C)C(=O)[C@@H]2C[C@@H](O)CN23)CC1	3.0%[70.6 µM]
COCC1CCN(Cc2cc3ccc(OC)cc3nc2-c2cccc(C)c2)C1 (configuration not stated)	2.3%
CN1CCN(C(=O)C2CCCN(S(=O)(=O)c3cn(C)cn3)CCC(=O)NCC2)CC1 (configuration not stated)	0.9%
O=C(Cc1ccccn1)N1CCC2(C1)C(=O)N(CCc1ccccc1)c1ccccc12 (configuration not stated)	19.1%&0.6%
CC(C)N1C(=O)C2(CCCC2)C1C(=O)N1CCc2ccccc21 (configuration not stated)	3.7%

The list continues:
SMILES	hNpr1 antagonist
CN(Cc1cccn1C)Cc1cccn1C	33.9%[activator][70.6 µM]
COc1ccc(C(=O)N2CC[C@H]3C(=O)NCCCCCCN(Cc4ccncc4)[C@@H]3C2)c(OC)n1	1.1%
CCc1nc(-c2c3n(c(=O)n(Cc4cc(F)ccc4F)c2=O)CCCC3)no1	6.5%
C[C@@H](c1ccccc1)N(C)C(=O)c1cn(Cc2cccc(C(F)(F)F)c2)nn1	1.6%
O=C(CN1C(=O)NC(c2ccccc2Cl)C2=C1COC2=O)NCc1ccccc1Cl (configuration not stated)	-5.1%
CN(C)C(=O)c1ccc(OC2CCN(C(=O)c3ccccc3)CC2)nc1	1.1%
C#CCOc1ccc(C(=O)N[C@@H]2CN(C3CCN(C)CC3)CCC[C@H]2O)cc1	2.3%[70.6 µM]
Cc1noc(C)c1-c1cnc(Nc2ccncc2)c2c1CCO2	-0.6%[70.6 µM]
Cc1noc2c(Nc3ccc(Cl)cc3)cc(-c3cccnc3)nc12	-16.6%[70.6 µM]
Cc1ncsc1CCN(C)CC1(O)CCCNC1 (configuration not stated)	16.5%
NC(=O)[C@@H]1CN(C(=O)COc2ccccc2)C[C@H]1COc1ccccc1	-14.2%
CN(C)CCCn1cnc2cc(NC(=O)C[C@H]3NC(=O)c4ccccc4NC3=O)ccc21	-1.3%
O=C(c1ccc(-c2cccc(O)c2)nc1)N1CCCN(c2ncccn2)CC1	-2.1%
Cc1cc(C)cc(OCC(=O)c2ccc3c(c2)N(CC(=O)N(C)Cc2ccccc2)C(=O)CO3)c1	-2.9%
CCc1ccccc1OCC(=O)c1ccc2c(c1)N(CC(=O)Nc1ccc(F)cc1)C(=O)CO2	-3.3%
Cc1cnc(CN(C)c2cc(C3CC(O)C3)nc(N)n2)[nH]1 (configuration not stated)	2.6%
CN(CC1Cc2ccccc2O1)C(=O)c1cn(Cc2ccccc2F)nn1 (configuration not stated)	2.3%
CCNC(=O)N1Cc2[nH]cnc2C[C@H]1c1nc(-c2ccc(F)c(Cl)c2)no1	-23.2%[70.6 µM]
O=C(CCc1ccccc1)N1CC[C@H]2COC(=O)N2c2cc(F)ccc2C1	2.2%[70.6 µM]
CCOc1ccccc1NC(=O)N1CCCC(c2nc(C(C)C)no2)CCNC(=O)CC1 (configuration not stated)	-1.3%
Cn1c(Cn2cccn2)nnc1C1CC(NC(=O)COc2cccnc2)C1 (configuration not stated)	3.0%
COCCN1C(=O)[C@H]2CN(Cc3ccccc3Cl)C[C@H]2C1=O	-6.3%
COCCc1noc(CC2CCOC3(CCN(C(=O)Nc4ccc5c(c4)OCCO5)CC3)C2)n1 (configuration not stated)	1.1%
O=C(CCC1CCCC1)N1CCCC1c1nc(CCOCC2CC2)no1 (configuration not stated)	2.7%
CC[C@@H](NC(=O)c1cc(S(N)(=O)=O)ccc1C)C1CC(O)C1 (some centres not stated)	15.9%

Next records follow.
SMILES	hNpr1 antagonist
Cc1cc(C)n(CCC(=O)N2CC3CC(C2)[C@H]2CCCC(=O)N2C3)n1 (some centres not stated)	2.7%
COCCc1nncn1C1CCN(S(=O)(=O)c2ccccc2Cl)CC1	-0.8%
O=C(c1ccc(F)cc1)N1CCCC2(CN[S+](=O)([O-])c3ccccc3N2)C1 (configuration not stated)	0.0%
O=C(c1cc(CN2CCOCC2)on1)N1CCC(c2nc(C3CCOCC3)no2)C1 (configuration not stated)	-13.8%
COc1ccc(-c2nc3c(c(-c4ccccc4)n2)CN(C(=O)Nc2ccccc2)CC3)cc1	4.6%
COC1CCCN(c2ncccc2-c2cc(-c3ccccc3)nc3c(C)noc23)C1 (configuration not stated)	-30.2%[70.6 µM]
O=C([C@@H]1C[C@H](Oc2ccccc2)CN1C(=O)COc1ccc(F)cc1)N1CCCC1	-0.4%
O=C(Cc1c[nH]c2ccccc12)N1CC2CC(C1)[C@H]1CCCC(=O)N1C2 (some centres not stated)	0.5%
c1ccc(CN2CCC[C@H]2c2nc(-c3ccnc(N4CCOCC4)c3)no2)cc1	-24.5%[70.6 µM]
COc1cccc(NC(=O)c2ccnc(-c3nnc4ccc(N(C)C)nn34)c2)c1	-1.0%[70.6 µM]
c1ccc(N2CCCC(c3nccn3Cc3ccncc3)C2)nc1 (configuration not stated)	-2.9%
CCCN1CCN(C(=O)Cn2c(C)ccc(NC(=O)Nc3ccccc3)c2=O)CC1	7.5%
CC(C)NC(=O)N1Cc2[nH]cnc2C[C@H]1c1nc(-c2ccc(Cl)cc2)no1	-20.3%[70.6 µM]
COc1ccc(S(=O)(=O)N2C[C@@H]3C[C@H](C2)c2c(NC(=O)c4cncnc4)ccc(=O)n2C3)cc1	1.5%
COC1C(=O)N(CC2CC2)C12CCN(C(=O)NC1CCCCC1)CC2 (configuration not stated)	-0.2%
O=C1CO[C@H]2CN(C3CCC3)C[C@H]2N1Cc1ccc(OC(F)(F)F)cc1	2.1%[70.6 µM]
O=C(c1cn(C2CCCCC2)nn1)N1CCCC(C(=O)N2CCOCC2)C1 (configuration not stated)	1.6%
CN1C(=O)N(Cc2cccnc2)C(=O)C12CCN(Cc1cc3ccccc3o1)CC2	?
COc1cccc(C2C(C(=O)OC(C)C)=C(C)N=C3SC=C(CC(=O)N4CCCC4)N32)c1OC (configuration not stated)	-15.9%
CC(C)c1ccc(CC(=O)N2CCCc3ncc(C(=O)NCCc4ccccc4)cc32)cc1	?
CCc1ccc(CN2C[C@@H]3C(=O)N(CCCN4CCCC4=O)C(=O)[C@@H]3C2)cc1	-5.1%
N#Cc1ccc(C(=O)N2CCC3(CC2)CN(Cc2ccccc2)CC3CO)cc1 (configuration not stated)	-11.5%
COc1ccccc1CN1CC[C@@H]2OCC(=O)N(Cc3c[nH]c4ccccc34)[C@H]2CC1	-16.4%[70.6 µM]
CCN1CCN(Cc2cn(-c3ccccc3F)nc2-c2cc(C)sc2C)CC1	-1.0%
Cn1nccc1C(=O)N1C[C@@H](Oc2cccnc2)C[C@H]1C(=O)N1CCCC1	-6.5%
CCc1cccc2c(C(CC(=O)NCCc3ccccc3)c3ccc(OC)c(OC)c3)c[nH]c12 (configuration not stated)	-16.2%
CNC(=O)[C@@H]1CN(C(=O)c2cnn(C)c2)C[C@H]1COC	-0.2%

Copied from the list:
`COCCc1nncn1C1CCN(S(=O)(=O)c2ccccc2Cl)CC1` in hNpr1 antagonist: -0.8%
`CN1CCC(N2CC3(C2)C(=O)N(C)C(=O)[C@@H]2C[C@@H](O)CN23)CC1` in hNpr1 antagonist: 3.0%[70.6 µM]
`CCOc1ccccc1CN1CCN(c2ncccc2C#N)CC1CCO` (configuration not stated) in hNpr1 antagonist: -4.3%

Screens as filed in PubChem BioAssay.

The list is partial; the hit share may differ from the screen's.
